MLL AF4-AF9 inh – inhibitors of human MLL-AF4/AF9 interaction; P42568; AlphaScreen, biotin-AF4 peptide binding to FLAG-AF9; inhibition, % at 10 µM; hit rate 0.47% among 350,000; AID 651704;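 active = every replicate reaching a set inhibition limit, whatever the replicate mean, cut at about 25% in these data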;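 also: 0% = plate neutral control median and 100% = total signal loss; the record names both 10 and 1 µM as test concentration; the first replicate is given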
Target sequence (P42568 whole entry, looked up): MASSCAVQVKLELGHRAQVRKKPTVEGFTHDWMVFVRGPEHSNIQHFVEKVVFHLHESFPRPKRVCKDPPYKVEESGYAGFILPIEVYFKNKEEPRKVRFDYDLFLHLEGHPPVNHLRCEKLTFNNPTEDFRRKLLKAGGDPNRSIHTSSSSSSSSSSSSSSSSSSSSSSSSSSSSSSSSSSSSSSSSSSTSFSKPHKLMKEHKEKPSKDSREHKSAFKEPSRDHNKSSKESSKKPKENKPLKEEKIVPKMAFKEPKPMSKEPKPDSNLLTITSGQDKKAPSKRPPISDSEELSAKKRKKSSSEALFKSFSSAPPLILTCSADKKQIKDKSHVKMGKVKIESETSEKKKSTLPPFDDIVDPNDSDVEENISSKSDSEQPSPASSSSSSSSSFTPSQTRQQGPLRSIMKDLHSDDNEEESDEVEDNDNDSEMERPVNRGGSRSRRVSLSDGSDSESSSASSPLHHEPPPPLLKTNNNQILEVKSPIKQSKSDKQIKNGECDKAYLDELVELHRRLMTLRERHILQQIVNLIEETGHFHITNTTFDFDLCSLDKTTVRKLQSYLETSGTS
Numbers without * were called inactive. These rows are one share of the data; rates above refer to the full screens.

SMILES	MLL AF4-AF9 inh
C[C@H]1CN([C@@H](C)CO)C(=O)c2cc(C#CC(C)(C)O)cnc2O[C@@H]1CN(C)Cc1cncnc1	-0.1
C[C@@H]1CN([C@@H](C)CO)S(=O)(=O)c2ccc(C#CC(C)(C)O)cc2O[C@H]1CN(C)C(=O)CC1CC1	-3.0
CCCc1nc2ccc(C)cn2c1Cc1cccc(F)c1	5.3
CNC[C@@H]1Oc2c(NS(=O)(=O)c3ccc(OC)cc3)cccc2C(=O)N([C@H](C)CO)C[C@H]1C	-1.9
Cc1cc(C(=O)Nc2cccc3c2O[C@H](CN(C)S(=O)(=O)c2ccc(Cl)cc2)[C@H](C)CN([C@@H](C)CO)C3=O)n(C)n1	1.1
O=C(NC1CCCC1)N1CCCCN2[C@H](CO)[C@@H](c3ccc(-c4cncnc4)cc3)[C@@H]2C1	-7.0
Cc1ccc(-c2ccc([C@H]3[C@@H](CO)N4C(=O)CN(C(=O)c5ccncc5)C[C@H]34)cc2)cc1	1.2
COC(=O)C1=C(C)N(Cc2ccccc2C(F)(F)F)C(=NCc2ccc3c(c2)OCO3)NC1CCc1ccccc1 (stereo not given)	9.6
O=C(c1ccccn1)N1C[C@@H]2[C@H](c3ccccc31)[C@@H](CO)N2C(=O)Nc1ccccc1F	-9.7
CCCNC(=O)Nc1ccc2c(c1)C(=O)N(C)[C@H]1CC[C@H](CC(=O)NCCCN(C)C)O[C@H]1CO2	-0.9
C[C@@H]1CCCCO[C@H](CN(C)C(=O)c2ccccc2)[C@@H](C)CN([C@@H](C)CO)C(=O)c2cc(NC(=O)Cc3ccccc3)ccc2O1	-2.3
CCC(=O)N1CC(=O)N2[C@H](C1)[C@H](c1ccc(-c3ccc(C(=O)N(C)C)cc3)cc1)[C@@H]2CO	0.2
O=C1CN(Cc2ccccc2)C[C@H]2[C@H](c3ccc(Br)cc3)[C@@H](CO)N12	2.7
CSc1ccc(CN2CCC2(C)C(=O)NC2CCc3ccccc32)cc1 (stereo not given)	3.3
COc1ccc(S(=O)(=O)Nc2ccc3c(c2)C(=O)N([C@@H](C)CO)C[C@H](C)[C@@H](CN(C)S(=O)(=O)c2cccs2)O3)cc1	3.7
O=C(NCCN1CCC(n2c(=O)[nH]c3ccccc32)CC1)c1ccc(OC(F)(F)F)cc1	1.0
CCOCCC(=O)Nc1ccc2c(c1)c(=O)n(C)n2C/C=C/c1ccccc1	-1.9
CCCNC(=O)[C@H]1[C@H](CO)[C@H]2Cn3c(cccc3=O)[C@@H]1N2Cc1ccccc1	-3.0
C[C@H]1CN([C@@H](C)CO)C(=O)c2cc(-c3cccc(C#N)c3)cnc2O[C@@H]1CN(C)Cc1ccc(F)cc1	4.0
C[C@@H]1CN([C@H](C)CO)C(=O)c2cc(NS(=O)(=O)c3ccccc3)ccc2O[C@@H]1CN(C)Cc1ccc(Cl)c(Cl)c1	3.9
C[C@@H]1CCCCO[C@@H](CN(C)C(=O)NC2CCCCC2)[C@@H](C)CN([C@@H](C)CO)C(=O)c2cc(NS(=O)(=O)c3ccc(Cl)cc3)ccc2O1	1.0
CC(=O)N1[C@@H](CO)[C@H](c2ccccc2)[C@@H]1CN(C(=O)c1ccccc1)C(C)C	-0.3
COc1cccc(C(=O)N2C[C@@H]3[C@H](c4ccccc42)[C@H](CO)N3Cc2cccnc2)c1	1.2
O=C(NCC[C@@H]1CC[C@@H](NS(=O)(=O)Cc2ccccc2)[C@@H](CO)O1)C1CCCCC1	0.8
C[C@@H]1CCCCO[C@@H](CN(C)C(=O)CCCN(C)C)[C@@H](C)CN([C@H](C)CO)C(=O)c2cc(NC(=O)CCCN(C)C)ccc2O1	0.0
C[C@@H]1CCCCO[C@@H](CN(C)S(C)(=O)=O)[C@H](C)CN([C@@H](C)CO)C(=O)c2cc(NC(=O)Nc3ccc(C(F)(F)F)cc3)ccc2O1	1.6
CC(=O)N1CC2(C1)[C@@H](c1ccc(-c3cccc(F)c3)cc1)[C@@H](CO)N2CC1CC1	-1.5
O=C(C[C@@H]1CC[C@@H]2[C@H](COC[C@H](O)CN2C(=O)Nc2ccc(Cl)cc2)O1)NCc1ccncn1	0.5
C[C@H](CO)N1C[C@H](C)[C@@H](CN(C)Cc2cccc(C(=O)O)c2)OCc2cn(nn2)CCCC1=O	-7.0
C[C@H](NC(=O)C[C@@H]1CC[C@H](NC(=O)c2cccnc2)[C@@H](CO)O1)c1ccccc1	-0.2
CO[C@H]1CN(C)C(=O)c2cc(NC(C)=O)ccc2OC[C@H](C)N(CCC(F)(F)F)C[C@H]1C	-14.0
Cc1ccc(NC(=O)c2oc3ccc(Br)cc3c2C)cc1S(=O)(=O)N1CCOCC1	1.5
CC(C)=CCC[C@H](C)C[C@@H]1Cc2[nH][nH]c(=O)c2[C@@H](c2ccc(F)cc2)O1	-1.5
CCCNC(=O)N1[C@H](C#N)[C@@H](c2ccccc2-c2ccccc2)[C@@H]1CO	-0.9
CC(C)NC(=O)N1[C@H](C#N)[C@H](c2ccc(-c3ccc(F)cc3)cc2)[C@@H]1CO	1.8
CCC(=O)N1[C@H](CO)[C@@H](c2ccccc2)C12CN(CC1CCOCC1)C2	-10.6
O=C(C[C@H]1CC[C@H]2[C@@H](COC[C@@H](O)CN2Cc2ccc3c(c2)OCO3)O1)Nc1ccccc1	0.4
COC(=O)C1=C(C)N(C)C(=NCc2ccc(OC)cc2)NC1c1cccc(F)c1 (stereo not given)	-0.6
O=C(c1ccc2c(c1)OCO2)N1CC2(C1)[C@H](c1ccccc1)[C@H](CO)N2C(=O)C1CCCC1	-3.4
COc1ccc(C#Cc2ccc3c(c2)[C@H]2[C@H](CCN2C(=O)CN2CCOCC2)[C@H](CO)N3C)cc1	-1.4
CO[C@H]1CN(C)C(=O)c2cc(NC(=O)C3CCC3)ccc2OC[C@H](C)N(Cc2ccc(F)cc2)C[C@H]1C	10.7
CCC(=O)Nc1ccc2c(c1)OC[C@H](C)N(C(=O)CC1CC1)C[C@H](C)[C@@H](OC)CN(C)C2=O	-2.1
CCC(=O)N1CC2(C1)[C@H](c1ccc(-c3ccc(C#N)cc3)cc1)[C@H](CO)N2C(C)=O	-3.3
C[C@@H]1CN([C@H](C)CO)C(=O)c2cc(NC(=O)CCN3CCOCC3)ccc2O[C@@H]1CN(C)CC1CCCCC1	-2.0
O=C(Nc1ccc(F)c(Cl)c1)c1ccc2sc([C@H]3C[C@H](O)[C@@H](CO)O3)nc2c1	2.0
C[C@@H]1CN([C@H](C)CO)C(=O)c2cc(NC(=O)Nc3cccc4ccccc34)ccc2O[C@@H](C)CCCCO[C@H]1CN(C)Cc1ccncc1	2.5
CCOC(=O)[C@@H]1[C@@H]2C=C[C@]3(O2)[C@H](C(=O)NCc2ccccc2)N(CCCCCCO)C(=O)[C@@H]13	-2.3
Cc1ccc(S(=O)(=O)N(C)C[C@@H]2OCCCC[C@H](C)Oc3ccc(NS(=O)(=O)c4c(C)noc4C)cc3C(=O)N([C@@H](C)CO)C[C@H]2C)cc1	-1.9
Cc1noc(C)c1NC(=O)N(C)C[C@H]1Oc2ncc(C#CC3CC3)cc2C(=O)N([C@@H](C)CO)C[C@@H]1C	-0.9
COc1cccc(-c2cnc(C(O)c3ccccc3)[nH]2)c1 (stereo not given)	2.0
O=S(=O)(c1ccccc1F)N1CCCCN2[C@H](C1)[C@@H](c1ccc(-c3cncnc3)cc1)[C@@H]2CO	-2.0
COc1ccc(NC(=O)N(C)C[C@H]2Oc3ccc(NS(=O)(=O)c4ccc(F)cc4)cc3CC(=O)N([C@H](C)CO)C[C@H]2C)cc1	-0.7
O=C(Nc1ccccc1F)N[C@@H]1CC[C@H](CCNC(=O)C2CCC2)O[C@H]1CO	-3.0
CC=Cc1ccc2n(c1=O)C[C@H]1[C@H](CO)[C@@H](C(=O)NCCc3ccncc3)N(CCC(F)(F)F)[C@@H]21 (mixture of isomers)	0.3
C[C@H](CO)N1C[C@H](C)[C@@H](CN(C)C)Oc2cc(C#Cc3ccccn3)ccc2S1(=O)=O	0.7
O=C(C[C@H]1C[C@@H]2c3cc(NC(=O)C4CCC4)ccc3O[C@@H]2[C@@H](CO)O1)NCc1ccncc1	-1.6
Cc1noc(C)c1NC(=O)Nc1cccc2c1O[C@@H](CN(C)Cc1ccc(C(=O)O)cc1)[C@H](C)CN([C@H](C)CO)C2=O	-0.4
C[C@H]1CN([C@@H](C)CO)C(=O)CCCn2cc(nn2)CO[C@H]1CN(C)S(=O)(=O)c1cn(C)cn1	0.4
O=C(NCc1ccncc1)[C@H]1N[C@H]2c3ccc(/C=C/c4ccccc4)c(=O)n3C[C@H]2[C@@H]1CO	3.7
C[C@H](CO)N1C[C@H](C)[C@@H](CN(C)CC2CC2)Oc2ccc(NC(=O)Cn3cnnn3)cc2CC1=O	-1.4
Next part.
SMILES	MLL AF4-AF9 inh
Cc1ccc(S(=O)(=O)N(C)C[C@@H]2Oc3ccc(NC(=O)Nc4c(C)noc4C)cc3CC(=O)N([C@H](C)CO)C[C@H]2C)cc1	-1.7
O=C(C[C@@H]1C[C@H]2c3cc(NC(=O)NC4CCCCC4)ccc3O[C@H]2[C@@H](CO)O1)NC1CCCCC1	-3.4
CO[C@@H]1CN(C)C(=O)c2cc(NC(=O)C3CCC3)ccc2OC[C@@H](C)N(Cc2cccnc2)C[C@H]1C	-1.4
OC1CCC(Nc2ccn3nc(-c4cccc(OCc5ccccc5)c4)cc3n2)CC1 (stereo not given)	-0.6
O=[N+]([O-])c1ccc(C(O)CC(O)CSc2nc(-c3ccccc3)c(-c3ccccc3)o2)cc1 (stereo not given)	-0.7
CCC(=O)N1C[C@H](C)[C@@H](OC)CN(C)C(=O)c2ccc(NC(=O)c3ccccc3)cc2OC[C@@H]1C	-1.4
Cc1ccc(-c2ccc(C3[C@@H]4CN(S(=O)(=O)c5cccc(C)c5)C[C@H]3N4)cc2)cc1 (stereo not given in full)	-3.2
C[C@@H]1CCCCO[C@H](CN(C)C(=O)Nc2ccccc2)[C@@H](C)CN([C@@H](C)CO)C(=O)c2cc(N(C)C)ccc2O1	-0.9
COC(=O)[C@@]12C[C@@H](CC(=O)N3CCCCC3)C(=O)N(Cc3ccco3)C1=CCC(C)(C)C2	0.9
C[C@H](CO)N1C[C@H](C)[C@@H](CN(C)C(=O)Nc2ccccc2F)Oc2ncc(/C=C/c3ccccc3)cc2C1=O	10.9
CNc1cncc(-c2ccc(CN(C)C)cc2)n1	-4.4
C[C@@H]1CN([C@H](C)CO)C(=O)Cc2cc(NS(=O)(=O)c3ccc(Cl)cc3)ccc2O[C@H]1CN(C)CC1CC1	-2.0
CCN(C[C@@H]1[C@@H](c2ccccc2)[C@H](CO)N1S(C)(=O)=O)C(=O)C1CCCC1	-7.1
CC(C)C(=O)N1CCCC1(C)C(=O)Nc1ccc(-n2cccc2)cc1 (stereo not given)	1.3
CCN1[C@H](C(=O)NCc2ccncn2)[C@@H](CO)[C@@H]2Cn3c(ccc(-c4ccc(F)cc4)c3=O)[C@@H]21	-5.3
O=C(NC1CCCC1)[C@@H]1[C@@H](CO)[C@@H]2Cn3c(cccc3=O)[C@H]1N2Cc1cc(F)ccc1F	-5.1
COc1cccc(NC(=O)N(C)C[C@@H]2Oc3cc(C#Cc4ccncc4)ccc3S(=O)(=O)N([C@H](C)CO)C[C@@H]2C)c1	2.3
C[C@H]1CN([C@@H](C)CO)C(=O)Cc2cc(NC(=O)C3CCCCC3)ccc2O[C@H]1CN(C)S(=O)(=O)c1ccccc1	-2.5
C[C@H]1CN([C@@H](C)CO)C(=O)c2cc(C3=CCCCC3)cnc2O[C@H]1CN(C)Cc1cccc(F)c1	-0.4
Cc1cnc(C2OCCO2)c2cccc([N+](=O)[O-])c12	-0.6
Cn1c(=O)c2c(c3ccccc31)OC(C)(C)C=C2	-17.4
C[C@@H]1CCCCO[C@H](CN(C)S(=O)(=O)c2ccc(Cl)cc2)[C@H](C)CN([C@@H](C)CO)C(=O)c2cc(NC(=O)Nc3ccc(F)cc3)ccc2O1	-0.1
COc1cccc(NC(=O)N(C)C[C@H]2Oc3cc(-c4ccccc4F)ccc3S(=O)(=O)N([C@H](C)CO)C[C@@H]2C)c1	0.9
COc1ccc(S(=O)(=O)Nc2cccc3c2O[C@H](CN(C)Cc2ccc(-c4ccccc4)cc2)[C@@H](C)CN([C@@H](C)CO)C3=O)cc1	0.0
O=C(NCC[C@H]1CC[C@H](NC(=O)c2ccccc2F)[C@H](CO)O1)c1cnccn1	-0.9

Compounds from the list above that have an aryl methoxy group (ten):
SMILES	MLL AF4-AF9 inh
CNC[C@@H]1Oc2c(NS(=O)(=O)c3ccc(OC)cc3)cccc2C(=O)N([C@H](C)CO)C[C@H]1C	-1.9
COc1ccc(S(=O)(=O)Nc2ccc3c(c2)C(=O)N([C@@H](C)CO)C[C@H](C)[C@@H](CN(C)S(=O)(=O)c2cccs2)O3)cc1	3.7
COc1cccc(C(=O)N2C[C@@H]3[C@H](c4ccccc42)[C@H](CO)N3Cc2cccnc2)c1	1.2
COC(=O)C1=C(C)N(C)C(=NCc2ccc(OC)cc2)NC1c1cccc(F)c1 (stereo not given)	-0.6
COc1ccc(C#Cc2ccc3c(c2)[C@H]2[C@H](CCN2C(=O)CN2CCOCC2)[C@H](CO)N3C)cc1	-1.4
COc1cccc(-c2cnc(C(O)c3ccccc3)[nH]2)c1 (stereo not given)	2.0
COc1ccc(NC(=O)N(C)C[C@H]2Oc3ccc(NS(=O)(=O)c4ccc(F)cc4)cc3CC(=O)N([C@H](C)CO)C[C@H]2C)cc1	-0.7
COc1cccc(NC(=O)N(C)C[C@@H]2Oc3cc(C#Cc4ccncc4)ccc3S(=O)(=O)N([C@H](C)CO)C[C@@H]2C)c1	2.3
COc1cccc(NC(=O)N(C)C[C@H]2Oc3cc(-c4ccccc4F)ccc3S(=O)(=O)N([C@H](C)CO)C[C@@H]2C)c1	0.9
COc1ccc(S(=O)(=O)Nc2cccc3c2O[C@H](CN(C)Cc2ccc(-c4ccccc4)cc2)[C@@H](C)CN([C@@H](C)CO)C3=O)cc1	0.0
